Env fusion inh – inhibitors of HIV Env-mediated cell fusion. HeLa-JRFL Env/CEM21 cell fusion, luciferase. inhibition, % at 12.3 µM. 1.1% of 360,000 active;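 active = mean replicate inhibition score of at least 50 and every replicate individually at or above 50; inconclusive = only one of the two criteria met; inactive = mean below 50 and not all replicates reaching 50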;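 also: 0% = plate neutral controls and 100% = maraviroc near 300 nM; one replicate is shown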
eIF4H inh – inhibitors of RNA binding by human eIF4H; eIF4H fluorescence polarization binding assay; inhibition, % at 35 µM; Q15056; 0.94% of 290,000 active;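 active = 50% or more with normal probe brightness, or confirmed in later tests; inconclusive = above 50% with abnormal brightness, or retests that disagree; inactive = below 50% or failed in later tests; about a fifth of its hits are not listed in these tables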;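 also: calls also rest on retests at 20 µM and on dose response follow-up; 0% = protein and probe with vehicle and 100% = probe without protein; strong numbers were not always called active; many hits fall short of the cut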
CSC inhib – cancer stem cell inhibition | inhibition, % at 7.5 µM | 1.1% of 300,000 active | cancer stem cell-like cells viability, luminescence;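 active = mean at 75% or more and at least half the replicates too; inconclusive = mean and replicates disagree; tested in HMLE shEcad cells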;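 also: 0% = median of negative and 100% = median of positive control wells; the first replicate is given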
Yeast UUG start – alters start codon recognition fidelity in yeast. 0.13% of 350,000 active. activity score, % at 18.7 µM. S. cerevisiae UUG-firefly luciferase reporter, luminescence/redox ratio;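 active = replicate mean at a twofold rise or more, about +100% in these data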;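 also: firefly luciferase made from a UUG start codon reports start codon fidelity; reporter light over untreated wells divided by growth signal over untreated wells; some hits fall short of that in this replicate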
Rce1 inhib – blocks yeast Ras-converting enzyme | 0.27% of 290,000 active | yeast membranes, quenched prenylated peptide cleavage fluorescence | calls only | Q03530 | AID 2563;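 active = fall in fluorescence gain of 50% or more versus controls, with final raw signal at or below 3038400; inconclusive = same 50% fall but final raw signal above 3038400; inactive = fall in fluorescence gain under 50%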;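 also: plate controls were neutral control wells for no effect and wells lacking membranes for full effect; tested at 10 µM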
Target sequence (Q03530 whole entry, looked up): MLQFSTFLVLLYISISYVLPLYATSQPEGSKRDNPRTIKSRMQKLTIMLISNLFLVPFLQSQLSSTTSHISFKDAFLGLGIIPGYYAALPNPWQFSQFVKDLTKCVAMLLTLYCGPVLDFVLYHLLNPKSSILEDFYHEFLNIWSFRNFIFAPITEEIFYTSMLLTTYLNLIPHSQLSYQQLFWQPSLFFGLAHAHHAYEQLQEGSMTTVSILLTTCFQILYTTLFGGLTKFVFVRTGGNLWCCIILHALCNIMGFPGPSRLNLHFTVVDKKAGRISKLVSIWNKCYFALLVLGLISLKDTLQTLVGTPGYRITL
MT1-MMP act inh – inhibitors of human MT1-MMP activation | P50281 | 0.061% of 360,000 active | HT1080 RFP-PRO-GFP cells, GFP/RFP ratio fluorescence, overnight; percent of plate control window, DMSO zero | GFP/RFP ratio change, % at 20 µM | AID 651647;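 active = GFP/RFP ratio change of at least 30% with cell ATP level not reduced by more than half and red fluorescence within 50% of control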; also: strong numbers were not always called active
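Assay system: HT1080 RFP-PRO-GFP cells. Benchmarks: DMSO vehicle wells and RFP-L50D-GFP reporter cell wells. Times: overnight cell settling, then overnight compound exposure, 37 °C, 5% CO2. Compound: 20 µM single dose, 1% DMSO. Read-out basis: GFP/RFP fluorescence ratio.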
PABP polyA inh – blocks human PABP binding to poly(A) RNA. 1% of 290,000 active. fluorescence polarization. inhibition, % at 35 µM. P11940;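 active = 50% or more with normal probe brightness, or confirmed in later tests; inconclusive = above 50% with abnormal brightness, or retests that disagree; inactive = below 50% or failed in later tests; about a fifth of its hits are not listed in these tables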;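 also: calls also rest on retests at 20 µM and on dose response follow-up; controls were probe without protein and protein plus probe with vehicle; some compounds called inactive have numbers as strong as hits; many hits fall short of the cut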
Target sequence (P11940 whole entry, looked up): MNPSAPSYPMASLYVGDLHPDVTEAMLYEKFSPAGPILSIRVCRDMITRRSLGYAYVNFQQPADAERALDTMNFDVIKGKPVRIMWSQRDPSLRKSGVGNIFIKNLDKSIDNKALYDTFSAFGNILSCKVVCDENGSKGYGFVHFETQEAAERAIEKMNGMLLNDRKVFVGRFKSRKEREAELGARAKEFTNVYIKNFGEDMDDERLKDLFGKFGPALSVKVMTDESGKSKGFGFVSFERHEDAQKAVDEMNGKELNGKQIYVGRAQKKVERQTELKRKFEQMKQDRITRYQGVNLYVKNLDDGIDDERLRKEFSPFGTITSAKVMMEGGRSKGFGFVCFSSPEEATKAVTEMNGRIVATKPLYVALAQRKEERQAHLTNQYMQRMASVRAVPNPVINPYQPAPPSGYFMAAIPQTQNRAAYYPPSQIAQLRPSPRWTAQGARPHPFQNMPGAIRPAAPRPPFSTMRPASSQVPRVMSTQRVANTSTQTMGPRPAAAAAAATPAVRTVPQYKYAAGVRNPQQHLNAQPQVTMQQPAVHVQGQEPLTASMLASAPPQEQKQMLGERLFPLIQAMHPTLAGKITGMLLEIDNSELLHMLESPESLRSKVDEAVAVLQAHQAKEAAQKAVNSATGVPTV
MT1-MMP act inh RFP – recorded beside MT1-MMP act inh, whose call it bears; RFP signal change, %; measured here: RFP expression control read;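 0 = vehicle wells; hits needed this value within 50% of zero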
An asterisk follows results filed as active; i = inactive; ? = inconclusive; nt = no result given; + = active, no number; & = joins results of further samples. This is a random part of the collection; any-hit rate near 3%.

Values run as follows: Env fusion inh	eIF4H inh	CSC inhib	Yeast UUG start	Rce1 inhib	MT1-MMP act inh	MT1-MMP act inh RFP	PABP polyA inh
CC(C)[C@H]1COCCS(=O)(=O)N1Cc1ccccc1
  20	nt	-13	4	i	-2	1	nt
Cc1ccc(C(C)C)cc1OCCOCCN1CCCC1
  -32	7	35	-16	i	3	0	0
CCC1Sc2ccc(S(=O)(=O)CCC(=O)Nc3ccc(C(=O)OC)cc3)cc2NC1=O (stereo unspecified)
  -7	nt	0	-10	i	4	0	nt
Cc1ccc(C(=O)n2c3ccccc3c3ccccc32)cc1
  nt	1	68	nt	i	-11	-16	1
C=CCOC(=O)C1=C(C)N=C2SCCC(=O)N2C1/C=C/c1ccccc1 (stereo unspecified)
  -2	-1	-13	nt	i	-4	-3	0
O=C(NCC(c1ccco1)N1CCc2ccccc2C1)C(=O)Nc1ccccc1F (stereo unspecified)
  -5	nt	2	-9	i	0	-5	nt
O=C(NCCO)c1ccc2[nH]c3ccccc3c2c1
  nt	-2	-3	7	i	15	0	8
Cc1ccc(C(=O)N(C)CC(=O)Nc2cccc(C)c2C)o1
  -2	-11	-11	nt	i	5	2	6
Cc1c(Cl)cccc1NC(=O)NCc1cccnc1
  3	2	-6	0	i	-1	1	0
CCCCCCCOC(=O)c1ccc(OC(=O)c2cccnc2)cc1
  nt	2	31	nt	i	2	6	7
Cc1c(Cl)cccc1NC(=O)CCN1C(=O)NC(C)(C)C1=O
  0	nt	nt	3	nt	3	4	nt
CCOC(=O)N1CCN(C(=O)/C(=C/c2cccs2)NC(=O)c2cccs2)CC1
  15	6	-9	-5	i	4	5	2
Cc1cccc(C(=O)NC(C)C(=O)NC(c2nc3ccccc3[nH]2)C(C)C)c1 (stereo unspecified)
  nt	nt	-2	-23	nt	1	9	nt
O=C1C2C3C=CC(C3)C2C(=O)N1c1cccnc1 (stereo unspecified)
  nt	-3	-15	-16	i	4	4	4
COc1cc(C=C2C(=O)c3ccccc3C2=O)cc(OC)c1OC
  -19	12	-6	-16	i	-47	8	2
O=C(Cc1ccccc1)NC(=S)Nc1cccc(C(F)(F)F)c1
  nt	5	-25	nt	i	-3	-5	-5
COc1cnc(SCC(=O)O)[nH]c1=O
  -41	7	-9	26	i	-1	-1	82*
O=C1C=C(c2cc3ccccc3o2)C[C@@H](c2ccc(F)cc2)C1
  -5	nt	15	-10	nt	3	1	nt
O=C(CN1CCOCC1)NNC(=S)Nc1ccccc1
  -1	-7	-2	nt	i	3	0	-4
O=C(CCc1ccccc1)c1ccc2c(c1)OCCCO2
  -80	1	1	-17	i	-1	1	2
CCOc1ccc(C(=O)NC(=S)Nc2cccc(NC(=O)c3ccco3)c2)cc1[N+](=O)[O-]
  2	2	1	nt	i	2	-5	-5
CCN(C(=O)Cn1c(Cl)nc2c1c(=O)n(C)c(=O)n2C)C1CCCCC1
  1	nt	9	-16	nt	4	0	nt
CCOc1ccc(OCC)c(NC(=O)CNS(=O)(=O)c2cccs2)c1
  -19	-13	-10	1	i	-1	2	-12
CCCCc1cc(=O)oc2cc(OCC(=O)N(CC)CC)c(Cl)cc12
  28	-2	-4	11	i	-2	-4	6
CC1(C)CC(C)(c2ccc(O)cc2O)N(c2ccc3ccccc3c2)C(=S)N1 (stereo unspecified)
  nt	-3	nt	-31	i	4	4	-12
CC1CCN(S(=O)(=O)c2ccc(S(=O)(=O)NCc3ccccc3)cc2)CC1
  19	4	4	-15	i	5	7	2
COc1ccc(C(=O)NNC(=S)NC(=O)c2cc(-c3ccccc3)nc3ccccc23)cc1
  40	5	-6	-20	i	15	-1	-5
CCC(=O)N(CCc1ccccc1)Cc1cc2ccc(OC)cc2[nH]c1=O
  14	-4	12	nt	i	-1	-1	6
Cc1cccc(N/C(N)=N/c2nc(C(F)(F)F)cc(=O)[nH]2)c1C
  nt	-3	-3	nt	i	1	-3	30
COc1ccccc1C(CNC(=O)c1cccc(S(=O)(=O)Nc2ccc(F)cc2)c1)N1CCCC1 (stereo unspecified)
  -7	nt	nt	-9	nt	-4	0	nt

Part of the list above, reformatted.
> CC(C)[C@H]1COCCS(=O)(=O)N1Cc1ccccc1
  Env fusion inh = 20
  eIF4H inh = nt
  CSC inhib = -13
  Yeast UUG start = 4
  Rce1 inhib = i
  MT1-MMP act inh = -2
  MT1-MMP act inh RFP = 1
  PABP polyA inh = nt

> COc1cc(C=C2C(=O)c3ccccc3C2=O)cc(OC)c1OC
  Env fusion inh = -19
  eIF4H inh = 12
  CSC inhib = -6
  Yeast UUG start = -16
  Rce1 inhib = i
  MT1-MMP act inh = -47
  MT1-MMP act inh RFP = 8
  PABP polyA inh = 2

> CCOc1ccc(C(=O)NC(=S)Nc2cccc(NC(=O)c3ccco3)c2)cc1[N+](=O)[O-]
  Env fusion inh = 2
  eIF4H inh = 2
  CSC inhib = 1
  Yeast UUG start = nt
  Rce1 inhib = i
  MT1-MMP act inh = 2
  MT1-MMP act inh RFP = -5
  PABP polyA inh = -5

Later entries
structure	Env fusion inh	eIF4H inh	CSC inhib	Yeast UUG start	Rce1 inhib	MT1-MMP act inh	MT1-MMP act inh RFP	PABP polyA inh
Cc1nc2c(C(=O)N3CCOCC3)cnn2c(C)c1Cc1ccc(Cl)cc1	-7	-3	-11	-9	i	3	1	-1
COC(=O)c1c(NC(=O)c2cccnc2)sc(C)c1C	nt	-4	-6	-20	i	-3	-1	0
CCN(CC(=O)Nc1ccc(NC(C)=O)cc1)C(=O)CCCc1c[nH]c2ccccc12	nt	nt	-13	0	nt	-4	-1	nt
Cc1csc2nc(=O)c3ccccc3n12	-38	8	nt	nt	+	10	5	5
CCC1CCCCN1C(=S)NC(=O)c1cc(Br)ccc1Cl (stereo unspecified)	-1	nt	1	-27	nt	2	-4	nt
Cc1cc(C)n(-c2cccc(CN(C)Cc3nc(-c4cnccn4)no3)c2)n1	12	0	-3	-16	i	3	0	-1
C=CCn1c(N2CCCC2)nc2c1c(=O)[nH]c(=O)n2C	nt	4	-10	-37	i	-5	2	6
CC1CC(C)CN(C(=O)CCn2c(=O)oc3ccccc32)C1 (stereo unspecified)	nt	-5	-5	-5	i	-2	4	0
O=C(C1CCN(S(=O)(=O)c2ccc(-n3cnnn3)cc2)CC1)N1CCN(c2ccccc2)CC1	12	-3	-7	8	i	2	-2	-3
COc1ccc(C(CC(=O)Nc2cc(OC)cc(OC)c2)n2cccc2)cc1 (stereo unspecified)	-40	8	7	nt	i	3	-3	4
O=C(c1cc(-c2ccccc2)nc2ccccc12)N1CCCC1	-2	-8	-19	6	i	-2	2	-8
Cc1nnc2c3ccccc3c(Cl)nn12	-13	3	2	nt	i	-3	-3	6
O=C(O)CNS(=O)(=O)c1ccc2c3c(cccc13)C(=O)N2	-8	34	-7	-9	i	1	3	44
CCN1CCCC1Cn1cnc2c([nH]c3cc(OC)ccc32)c1=O (stereo unspecified)	nt	35	2	-6	i	3	5	32
CC1CN=C(c2cccn2Cc2ccc(F)cc2Cl)O1 (stereo unspecified)	-18	-5	-11	-7	i	-3	3	-9
Cc1cccnc1NC(=O)c1ccc2nc(N)sc2c1	nt	6	-9	-13	i	3	9	-10
COc1ccc(Cl)cc1S(=O)(=O)N1CCCc2ccccc21	8	-15	-2	-9	i	-1	-1	-8
Cc1cc(NC(=O)Nc2cc(Cl)ccc2C)no1	3	-1	-8	-16	i	0	0	2
COc1ccc(CC(O)COS(N)(=O)=O)cc1 (stereo unspecified)	-26	9	19	-17	i	-1	-2	3
CN(CC(=O)Nc1ccc(Cl)c(C(F)(F)F)c1)C(=O)c1cn2ccccc2n1	0	nt	14	-24	i	-3	-13	nt
COc1ccc(Cc2nc3ccc(C(=O)N(C)CCO)cc3o2)cc1	-23	-7	7	-6	i	1	2	2
COc1ccc(N2C(=O)C3CCCN3C2c2cccs2)cc1 (stereo unspecified)	-12	-5	-19	-17	i	2	5	-3
CN(CC(=O)Nc1ccccc1Cl)C(=O)CCNC(=O)Nc1ccccc1	nt	nt	-3	0	nt	2	-2	nt
CCOC(=O)CN(C(=O)CSc1nnc(COc2ccc(OC)cc2)n1C)c1ccccc1	-89	-1	-14	9	i	-4	2	-6
C=CCn1c(-c2ccc(OC)cc2)nc2nc3ccccc3nc21	-87	-10	-12	-24	i	3	2	0
Cc1cc(F)ccc1S(=O)(=O)N1CCCOC1CNC(=O)C(=O)NCc1ccccn1 (stereo unspecified)	2	-14	0	-20	i	8	-3	0
O=C(NCC(c1ccco1)N1CCCCC1)c1ccc(COc2ccccc2)cc1 (stereo unspecified)	-8	nt	-8	nt	i	1	-1	nt
COc1ccc(S(=O)(=O)N2CCN(Cc3cc(OC)c(O)c(OC)c3)CC2)cc1	5	9	-11	4	i	-3	3	-1
CCOCCCn1c(=S)[nH]c2cc(C(=O)NCCc3ccccc3)ccc2c1=O	-6	-9	-6	-25	i	2	-1	13
CCNC(=S)N1CCN(c2nc(CC)nc3sc4c(c23)CCCC4)CC1	12	-2	11	-17	i	2	-6	6

Molecules from the list above that contain a COOH group, in the order listed:
structure	Env fusion inh	eIF4H inh	CSC inhib	Yeast UUG start	Rce1 inhib	MT1-MMP act inh	MT1-MMP act inh RFP	PABP polyA inh
COc1cnc(SCC(=O)O)[nH]c1=O	-41	7	-9	26	i	-1	-1	82*
O=C(O)CNS(=O)(=O)c1ccc2c3c(cccc13)C(=O)N2	-8	34	-7	-9	i	1	3	44

Remaining list, next part:
structure	Env fusion inh	eIF4H inh	CSC inhib	Yeast UUG start	Rce1 inhib	MT1-MMP act inh	MT1-MMP act inh RFP	PABP polyA inh
C[C@@H]1CN([C@@H](C)CO)C(=O)CCCn2nncc2CO[C@H]1CN(C)Cc1ccc2c(c1)OCO2	-9	nt	nt	-5&6&-6	nt	1	4	nt
Cn1nc(C(F)(F)F)c2cc(NC(=O)OCc3ccc(C(C)(C)C)cc3)sc21	-10	-8	nt	3	i	-7	-11	2
CCOC(=O)N1CCN(C(=O)c2ccccc2SCC(=O)NCC2CCCCC2)CC1	-1	nt	-2	nt	i	4	0	nt
CCOC(=O)C(C)Oc1ccsc1C(=O)OC (stereo unspecified)	nt	2	-11	nt	i	nt	nt	-1
Cc1cccn2c(=O)c3cc(C#N)c(=NC(=O)c4cccs4)n(CCCOC(C)C)c3nc12	0	?	-5	nt	i	3	1	?
O=C(CNS(=O)(=O)c1ccc(C(=O)N2CCCCC2)cc1)N1CCCCC1	?	-8	2	-11	i	3	-4	3
CCCCCN1C2=NCCN2c2ccccc21	-105	-6	-9	-8	nt	-2	-2	3
CCOC(=O)C1CN(S(=O)(=O)c2cccs2)c2ccc(CC(=O)OC)cc2O1 (stereo unspecified)	17	2	-5	-10	i	-4	1	-1
CCOC(=O)CSc1nnc(CNC(=O)c2ccc(OC)cc2)n1-c1ccc(OC)cc1	-33	1	-23	-9	nt	1	-6	1
CCN(CC)S(=O)(=O)c1ccc2nnn(OCC(=O)Nc3cccc(C#N)c3)c2c1	14	-7	-2	9	i	11	2	-5
CCN(CC(=O)Nc1ccccc1C(F)(F)F)C(=O)c1ccccc1SCC(=O)N1CCCC1	3	nt	-7	-7	i	-1	3	nt
